# Cruzain noTriton = cruzain (T. cruzi) inhibition without detergent; purified cruzain, Z-FR-AMC fluorescence, no detergent; Potency, µM, without a hit: max response, negative = inhibition, actives largely listed as inhibitors; P25779; 200,000 tested, 2.3% active; AID 1476;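 also: plate controls were enzyme without inhibitor for no effect and buffer without enzyme for full effect; nearly all actives have a fitted effect of over 40% in size; top concentration of the series not given in the record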
# Target sequence (P25779 123-467 limits assumed): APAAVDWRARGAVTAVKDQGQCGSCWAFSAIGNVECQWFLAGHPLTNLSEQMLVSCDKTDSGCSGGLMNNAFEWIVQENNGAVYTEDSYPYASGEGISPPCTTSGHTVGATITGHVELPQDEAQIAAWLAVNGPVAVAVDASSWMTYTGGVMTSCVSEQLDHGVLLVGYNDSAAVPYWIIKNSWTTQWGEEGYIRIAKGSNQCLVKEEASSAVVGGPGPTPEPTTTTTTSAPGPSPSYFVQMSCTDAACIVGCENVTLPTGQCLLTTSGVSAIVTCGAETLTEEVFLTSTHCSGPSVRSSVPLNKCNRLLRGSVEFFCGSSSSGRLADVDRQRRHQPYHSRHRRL
#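 Detergent-free condition (0.00005% Triton X-100) in acetate buffer pH 5.5 with DTT. 1.5 nM enzyme and compound were pre-mixed 15 min, then 2 uM Z-FR-AMC substrate added; reaction progress from fluorescence change between first and third reads (60 s).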
# RE007 growth inh = less growth of the S. pombe RE007 Vpr strain. Potency, µM (top dose mostly 92.2 µM), for the others: top-dose activity change, negative = less growth. 360,000 tested, 0.21% active. S. pombe RE007 Vpr strain, BacTiter-Glo ATP luminescence, 24 h; control for the full effect not named in the record; active = well fitted falling curve with a large enough effect; inconclusive = small, poorly fitted or top-dose-only effect; inactive = no such curve, though single readings can be large or run the other way;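 also: % is scaled to controls: 0 for no effect and ±100 for the full control effect; nearly all actives have a fitted effect of over 50% in size; the assay follows cell death caused by Vpr and the record does not say whether a fall means rescue or toxicity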
#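 Fission yeast RE007 carrying one integrated HIV-1 vpr copy, seeded at OD 0.01 in PMG+AL medium with 23 nL pinned compound. Grown 24 h at 30 degrees; viability read by BacTiter-Glo luminescence after 5 min.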
# NS1 inh = blocks influenza NS1 protein function. S. cerevisiae slowed by influenza A NS1, growth recovery by OD600. Potency, µM (highest dose often 46.1 µM), inactives show at the top dose activity, positive = more growth. 270,000 tested, 0.4% active. AID 2326; active means well fitted rising curve with a large enough effect; inconclusive means small, poorly fitted or top-dose-only effect; inactive means no such curve, though single readings can be large or run the other way; also: nearly all actives have a fitted effect of over 50% in size
#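 OD600 was taken as the measure of yeast growth restored by compound in an NS1-expressing S. cerevisiae strain. Cells had been washed out of glucose medium and diluted 1:100 into galactose -URA medium, pH 6.0.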
# SARS PLpro yeast = inhibitors of SARS-CoV papain-like protease in yeast | S. cerevisiae expressing SARS-CoV PLpro, growth rescue; control for the full effect not named in the record | Potency, µM (titrated, usually from 32.9 µM), without a hit: top-dose activity, positive = growth rescue | 330,000 tested, 0.19% active; active means well fitted rising curve with a large enough effect; inconclusive means small, poorly fitted or top-dose-only effect; inactive means no such curve, though single readings can be large or run the other way; also: 0% is about no effect; nearly all actives have a fitted effect of over 55% in size; growth read by luminescence after 48 h
# 2A StopGo = lowers the luciferase signal of an FMDV 2A StopGo reporter; human cells with a luciferase reporter of 2A StopGo recoding; control for the full effect not named in the record; 410,000 tested, 1.2% active; Potency, µM (doses to about 57.9 µM), for inactives: at the top dose signal change, negative = less light; active = well fitted falling curve with a large enough effect; inconclusive = small, poorly fitted or top-dose-only effect; inactive = no such curve, though single readings can be large or run the other way; tested in HEK293T cells; also: % is scaled to controls: 0 for no effect and ±100 for the full control effect; nearly all actives have a fitted effect of over 45% in size; luciferase light after 4 h
# MARV entry inh = blocks Marburg virus binding to or entry into cells; Potency, µM (series often up to 37.8 µM), inactives show top-dose activity change, negative = inhibition, actives largely listed as inhibitors; AID 540276; Marburg virus pseudotyped entry inhibition, cell reporter; control for the full effect not named in the record; about a third of the inactives were read at about 46 µM; 300,000 tested, 1.8% active; active = well fitted inhibition curve with a large enough effect; inconclusive = small, poorly fitted or top-dose-only effect, or effect the other way; inactive = flat fitted curve, though single readings scatter; tested in HEK293 cells; about a fifth of its hits are not listed in these tables; also: % is scaled to controls: 0 for no effect and ±100 for the full control effect; luciferase read-out
# Lassa entry inh = Lassa virus entry inhibition | Lassa virus pseudotype entry inhibition, cell reporter; control for the full effect not named in the record | Potency, µM (series often up to 37.9 µM), for the others: at the top dose activity change, negative = inhibition, most hits filed as inhibitors | AID 540256 | 300,000 tested, 1.2% active; active means well fitted inhibition curve with a large enough effect; inconclusive means small, poorly fitted or top-dose-only effect, or effect the other way; inactive means flat fitted curve, though single readings scatter; tested in HEK293 cells; also: % is scaled to controls: 0 for no effect and ±100 for the full control effect; nearly all actives have a fitted effect of over 50% in size; luciferase read-out
# Cruzain inh Det = blocks cruzain activity in presence of Triton detergent | P25779 | purified cruzain, Z-FR-AMC fluorescence, 0.01% Triton | Potency, µM, for the others: max response, negative = inhibition, most hits filed as inhibitors | 200,000 tested, 0.43% active | AID 1478;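 also: plate controls were neutral wells for no effect and buffer without enzyme for full effect; nearly all actives have a fitted effect of over 40% in size; top concentration of the series not given in the record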
#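 15 min RT preincubation of 1.5 nM cruzain with compound, then 2 uM Z-FR-AMC added; kinetic AMC fluorescence, 60 s delta. Triton X-100 0.01%, pH 5.5.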
# * = called active by the depositor; ? = inconclusive; . = not tested or not shown; [ ] = remark or other dose. Unless noted, calls follow the shape of the dose curve; as a rule, active = well fitted curve in the direction sought with a large enough effect; inconclusive = small, poorly fitted or top-dose-only effect, or another doubt; inactive = no such curve, though single readings can be large; an effect the other way counts as inactive or inconclusive. Potency is read from the fitted curve at half-maximal effect.
SMILES,Cruzain noTriton,RE007 growth inh,NS1 inh,SARS PLpro yeast,2A StopGo,MARV entry inh,Lassa entry inh,Cruzain inh Det
CN1C(=O)C2(Oc3ccccc3C3CC(c4ccccc4)=NN32)c2ccccc21 (configuration not stated),-9%,-21%,-2%,-23%,18%,?,10%,-6.9%
CCn1nnc2cc(C(=O)Nc3ccc(C)cc3Br)ccc21,-3%,.,.,.,40%[activator],.,?,3.6%
CC(C)NC(=O)C1CCN(C(=O)c2cc3sccc3n2Cc2ccc(F)cc2)CC1,?,-4%,-15%,4%,.,8.2µM*,?,-1.4%
O=C(CCNC(=O)c1ccccc1Cl)Nc1nnc(C2CC2)s1,.,13%,.,0%,-8%,?,16%,.
Cc1ccc(OCC(=O)NCCNC(=O)c2cnccn2)cc1,.,0%,1%,0%,2%,1%[46.1 µM],-3%,.
COc1ccccc1S(=O)(=O)Cc1ccc(C(=O)NCCCN2CCN(c3ccc(F)cc3)CC2)o1,.,-2%,0%,-1%,?,?,-19%[46.1 µM],.
O=C(NCc1ccc(F)cc1)C1CCCN(S(=O)(=O)c2ccc(Br)s2)C1 (configuration not stated),.,-8%,-6%,-1%,-21%,?,-8%,.
CC(C)(C)c1nnc2sc(SCC(=O)c3ccccc3)nn2c1=O,?,-22%,16%,-1%,-54%,-13%,-21%,-5.6%
CCN(Cc1ccccc1)C(=O)C(=O)c1cn(CC(=O)N2CCCC2)c2ccccc12,.,12%,15%,-2%,25%,-19%[46.1 µM],?,.
CCn1nnnc1SCC(=O)c1cc(OC)ccc1OC,-9%,-10%,-4%,1%,0%,13%,6%,-5.4%
C[C@H](NC(=O)c1ccc2ccccc2c1)C(=O)N1CCC2(CC1)NCCc1[nH]cnc12,.,-2%,-6%,-2%,1%,.,.,.
COc1cccc(CNC(=O)C2CCC(=O)N(C3CC3)C2)c1OC (configuration not stated),.,-2%,-3%,3%,-11%,.,.,.
CCc1ccc(NC(=O)CC2C(=O)N(c3ccc(OC)cc3)C(=O)N2Cc2cccs2)cc1 (configuration not stated),-2%,.,.,.,-4%,.,1%[46.1 µM],-4.7%
Cc1ccc(NC(=O)c2c3c(nc4ccccc24)C(=O)N(C2CCCCC2)C3)cc1F,-9%,.,.,.,-7%,.,11%[46.1 µM],-3.5%
Cc1ccc(S(=O)(=O)Nc2ccc3c(c2)ncn3C(C)(C)C)cc1,3%,-2%,0%,1%,.,-11%,-4%,-3.2%
COc1ccccc1N1CCN(C(=O)CCS(=O)(=O)c2cc(Br)cc3c2N(C(=O)C2CC2)CC3)CC1,?,.,.,.,-30%,?,-8%[46.1 µM],-2.4%
Cc1ccc(NC(=O)CN(C)S(=O)(=O)c2ccc3c(c2)c(=O)n(C)c(=O)n3C)cc1,.,-2%,0%,0%,7%,.,.,.
Cc1nc(-c2ccc(F)cc2)c(CC(=O)Nc2cc(S(=O)(=O)N3CCCCC3)ccc2C)s1,.,-13%,.,-7%,-15%,-29%[46.1 µM],?,.
CC1=C(C(=O)OCc2ccccc2)C(c2cccc([N+](=O)[O-])c2)NC(=O)N1C (configuration not stated),.,5%,22%,3%,?,.,.,.
CC1=CC(=O)C=CC1(C)C(Cl)(Cl)Cl (configuration not stated),1%,-10%,15%,0%,0%,?,10%,3.4%
O=C(CN1CCN(S(=O)(=O)c2ccccc2)CC1)NC(=O)NCc1ccco1,.,-8%,-11%,1%,?,-1%[46.1 µM],?,.
Cc1cccc(OCC(=O)N(Cc2ccc(N(C)C)cc2)C2CCS(=O)(=O)C2)c1 (configuration not stated),.,1%,4%,2%,-12%,2%[46.1 µM],23%[46.1 µM],.
COC(=O)c1cc(Br)c(=O)n(-c2ccc(F)cc2)c1,-3%,-10%,3%,4%,-17%,-2%,9%,1.3%
O=C(NC1CCCCC1)C(c1ccc(F)cc1)N(Cc1ccc2c(c1)OCO2)C(=O)c1cnsn1 (configuration not stated),17%,-13%,8%,18%,0%,-17%[46.1 µM],-7%,-7.3%
O=C(c1cccnc1)N1N=C(C2CCCCC2)CC1(O)C(F)(F)F (configuration not stated),.,2%,1%,1%,-8%,10%[46.1 µM],-13%[46.1 µM],.
CCOc1nc2ccccc2nc1C,16%,16%,-1%,-6%,-21%,-2%,5%,5.7%
Cc1c(C)n(C)c2ccc(C(=O)NCCN3CCOCC3)cc12,.,-16%,-2%,4%,-8%,.,.,.
COc1ccc(-c2cc(=O)oc3cc(OCC(=O)N(C)C)ccc23)cc1,.,3%,-15%,-1%,68%[activator],.,.,.
Cc1ccc(S(=O)(=O)N2CCN(S(=O)(=O)N3CCCCC3)CC2)cc1C,.,9%,7%,3%,-9%,?,?,.
CC(C)(C)c1cc(CCC(=O)NCc2ccncc2)cc(C(C)(C)C)c1O,.,10%,16%,-3%,9%,-2%,4%,.
CC1=C(C(=O)Nc2cc(C)ccc2C)C(c2cccs2)NC(=S)N1 (configuration not stated),-22%,3%,13%,1%,-20%,-3%,12%,9.0%
Cc1ccc(S(=O)(=O)N2CCC(=O)N(C(COCc3cccc(Cl)c3)C(C)C)CC2)cc1 (configuration not stated),?,-1%,-8%,-9%,-28%,4%,-11%,-6.7%
Cc1ccc(S(=O)(=O)N2CCOCC2)cc1NC(=O)CNC(C)c1ccccc1 (configuration not stated),.,12%,.,-14%,-29%,-13%,0%,.
COc1cc(/C=N/NC(=O)c2cc(-c3cccc(OC(C)C)c3)nc3ccccc23)ccc1O,.,4%,.,.,-25%,3.5µM*,3.5µM*,.
CCOC(=O)C(C(=O)OCC)C(Nc1cccc(Br)c1)c1ccccc1 (configuration not stated),2%,?,-38%,18%,0%,-5%,1%,-6.0%
O=C(N/N=C/C(Cl)=C\c1ccccc1)c1ccco1,.,-21%,-60%,-4%,9%,?,?,.
CCOc1ccc(NC(=O)CN(C)C(=O)c2ccccc2OCc2c(C)noc2C)cc1OCC,.,11%,.,0%,-15%,5%,-9%[46.1 µM],.
S=c1nccc(-c2cccs2)[nH]1,.,-1%,.,1%,7%,?,20%,.
COc1cccc(NC(=O)Cn2cc(C(=O)c3ccc(F)cc3)c(=O)c3cc(OC)ccc32)c1,-1%,.,.,.,-1%,-17%[46.1 µM],?,-3.6%
CC(C)CN1CCC(=O)NC1=S,.,4%,.,.,-6%,-6%[46.1 µM],-19%[46.1 µM],.
CCOc1cc(/C=N/O)ccc1OCc1ccccc1F,4%,-21%,-3%,?,8%,13%,20%,-5.0%
Cn1c(O)c(N=Nc2ccc(F)cc2)c2ccccc21,.,-19%,.,0%,35%[activator],7%[46.1 µM],?,.
S=c1[nH]nc(COc2ccc(Cl)cc2)n1Cc1ccccc1,.,10%,2%,0%,2%,-3%,1%,.
Cc1ccc(S(=O)(=O)NCCc2nnc3ccc(SCC(=O)Nc4nc(C)cs4)nn23)cc1,-5%,13%,-1%,11%,-11%,-10%,0%,-5.6%
CC(C)(C)NC(=S)N/N=C/c1cccnc1,.,12%,-6%,5%,6%,6%[46.1 µM],?,.

# 2 compounds from above, showing only Lassa entry inh, MARV entry inh and Cruzain inh Det.
molecule	Lassa entry inh	MARV entry inh	Cruzain inh Det
S=c1nccc(-c2cccs2)[nH]1	20%	?	.
COc1cc(/C=N/NC(=O)c2cc(-c3cccc(OC(C)C)c3)nc3ccccc23)ccc1O	3.5µM*	3.5µM*	.

# Next section
SMILES,Cruzain noTriton,RE007 growth inh,NS1 inh,SARS PLpro yeast,2A StopGo,MARV entry inh,Lassa entry inh,Cruzain inh Det
O=C(O)CCN(Cc1ccccc1)S(=O)(=O)c1c(Cl)cccc1Cl,.,2%,.,-1%,-3%,9%,2%,.
Cc1nnc(NC(=O)COc2ccccc2)s1,0%,-2%,-12%,-1%,.,9%,21%,1.7%
O=C(c1ccc2c(c1)N(Cc1ccc(F)cc1)CCS2)N1CCOCC1,.,-10%,5%,0%,18%,-28%[46.1 µM],10%[46.1 µM],.
O=C(CCl)Nc1cccc2ncccc12,4%,-4%,-2%,11µM*,-14%,?,?,-3.0%
NC(=O)CC(NC(=O)c1ccccc1)c1ccc(N2CCC(Cc3ccccc3)CC2)c([N+](=O)[O-])c1 (configuration not stated),.,7%,-12%,3%,?,.,.,.
COc1ccccc1NS(=O)(=O)c1cc(NC(=O)C(C)C)ccc1N1CCCCC1,.,-9%,.,-2%,55%[activator],0.79µM*,?,.
CCOC(=O)c1ccc(NC(=O)C2CC2)cc1,6%,8%,-60%,-3%,33%[activator],2%,25%,-3.1%
CCOC(=O)c1c(NC(=O)c2cc(OCC)c(OCC)c(OCC)c2)sc2c1CCCCC2,18%,.,.,.,-7%,.,23%[46.1 µM],-0.3%
CSc1nc2c(c(=O)[nH]1)C(c1cccc(F)c1F)CC(=O)N2 (configuration not stated),-3%,.,.,.,-3%,28%[46.1 µM],-14%[46.1 µM],-1.4%
CCCNc1cc(C)c(C#N)c2nc3ccccc3n12,13%,3%,2%,25%,-18%,13%,-18%,4.3%
CCCCNC(=O)NNC(=O)c1cc(C)on1,.,8%,-5%,1%,-15%,-16%,6%,.
CCN(CC)CCCC1(CN)OCCc2ccccc21 (configuration not stated),-1%,12%,0%,0%,-8%,?,-9%,-0.4%
O=C(O)/C=C/C(=O)Nc1ccc(Cl)cc1C(=O)c1ccccc1,.,-25%,5%,-2%,-12%,?,18%,.
CC(=O)Nc1ccc(S(=O)(=O)NCCC(=O)Nc2cc(C)ccn2)cc1,.,-5%,.,-3%,19%,-10%,2%,.
Clc1ncc2[nH]cnc2n1,.,-2%,.,2%,6%,9%[46.1 µM],7%,.
CNC(=O)NNC(=O)c1csc(Cc2c(Cl)sc3ccc(Cl)cc23)n1,.,8%,-4%,-3%,-9%,.,.,.
O=[N+]([O-])c1ccccc1OCCCn1cnc2ccccc21,.,11%,-2%,-3%,24%,?,17%,.
O=C(NNS(=O)(=O)c1ccc(Br)cc1)c1ccncc1,-6%,2%,16%,1%,17%,-2%,2%,2.1%
CC(C)[C@H](NC(=O)N1CCn2c1nc1ccccc12)C(=O)NCC1CCCO1 (some centres not stated),.,0%,11%,-4%,-10%,.,.,.

# Bioassay records deposited in PubChem by National Center for Advancing Translational Sciences (NCATS).

# The order is random; about 4.7% have a hit in one of these screens.
